Ecoli growth: E. coli growth inhibition; Escherichia coli growth, OD600, 23 h; hits give low values; OD600 absorbance (concentration not given with the values); 330,000 tested, 0.21% active; AID 1053175;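 active means OD600 absorbance below the run mean of sample wells minus 3.6 SD, in any replicate, cut at about 0.56 in these data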;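 further: stock transfer was 300 nL into about 60 µL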
Vif A3G: HIV-1 Vif–A3G interaction blockers – biochemical, TR-FRET, GST-Vif 1-94, biotin-A3G peptide, dose response retest, primary screen (AID 1117319); TR-FRET GST-Vif / biotin-A3G peptide binding; higher % means a stronger effect; test concentration not given here; strong numbers were not always called active; inhibition, %, or IC50 in µM where a hit was titrated; 260,000 tested, 0.57% active;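 active means above the screen mean plus three standard deviations and confirmed in dose response; inconclusive means results disagree or hit not tested in dose response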;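 further: Vif residues 1-94 fused to GST binding biotinylated APOBEC3G peptide 110-148; 0% = full assay without inhibitor and 100% = GST in place of GST-Vif; retest series ran down from 100 µM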
Ecoli rRNA inh: inhibitors of bacterial rRNA selective over humanized ribosomes | 350,000 tested, 1.6% active | E. coli WT GFP vs humanized-ribosome RFP mutants, fluorescence, 24 h; hits give low values; DMSO median 0, no signal -100 | GFP signal change (wild-type ribosome), % (test concentration not listed);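 active means significant combined selectivity score with lowered wild-type GFP, culture density cut under 30%, mutant RFP and density less affected; inactive means any of these conditions unmet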; further: one replicate is shown; some compounds called inactive have numbers as strong as hits
FGF22 binding: FGF22 (human) thermal shift binding. Q9HCT0. recombinant FGF22 thermal shift, SYPRO orange fluorescence; percent of sucrose octasulfate shift, DMSO zero. calls only at 9.99 µM. 340,000 tested, 1.5% active. AID 651658;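 active means melting point raised past a set limit in the mean and every replicate; inconclusive means no clear call; three in four hits are not shown here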
Target sequence (Q9HCT0 whole entry, looked up): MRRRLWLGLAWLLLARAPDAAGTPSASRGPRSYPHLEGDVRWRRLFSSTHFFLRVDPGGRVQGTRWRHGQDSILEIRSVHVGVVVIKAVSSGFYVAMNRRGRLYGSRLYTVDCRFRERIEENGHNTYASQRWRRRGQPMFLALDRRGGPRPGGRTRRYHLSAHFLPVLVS
ALR H2O2 inh: human ALR oxidase inhibition via reduced H2O2. P55789. purified ALR, DTT oxidation, H2O2 HRP-luminol luminescence. inhibition, % (no concentration beside the values). 290,000 tested, 3.8% active. AID 485317;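 active means mean and each replicate at 75% or more; inconclusive means only one of the two met; inactive means neither met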;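 further: stock transfer was 7.5 nL into about 7.5 µL; 0% = neutral wells and 100% = wells with inactivated enzyme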
Target sequence (P55789 whole entry, looked up): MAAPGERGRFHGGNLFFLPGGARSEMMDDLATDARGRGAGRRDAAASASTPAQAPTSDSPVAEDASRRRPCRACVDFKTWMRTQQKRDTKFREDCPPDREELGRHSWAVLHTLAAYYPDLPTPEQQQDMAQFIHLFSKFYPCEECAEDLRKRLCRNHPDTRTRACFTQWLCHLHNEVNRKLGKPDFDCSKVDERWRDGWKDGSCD
HNF4A DNA FP: change in binding of human HNF4 alpha to DNA. P41235. HNF4a-FITC DNA binding, fluorescence polarization, 1 h. activity change, % at 10 µM. 360,000 tested, 0.3% active. AID 1224865; in the data active means activity change above about 30%, passing the limit was not always enough;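 further: controls were the assay level and a saturating level of protein; the project sought stronger binding though the title names inhibitors; some compounds called inactive have numbers as strong as hits; positive values seem to mean higher polarization but the record does not say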
Target sequence (P41235 whole entry, looked up): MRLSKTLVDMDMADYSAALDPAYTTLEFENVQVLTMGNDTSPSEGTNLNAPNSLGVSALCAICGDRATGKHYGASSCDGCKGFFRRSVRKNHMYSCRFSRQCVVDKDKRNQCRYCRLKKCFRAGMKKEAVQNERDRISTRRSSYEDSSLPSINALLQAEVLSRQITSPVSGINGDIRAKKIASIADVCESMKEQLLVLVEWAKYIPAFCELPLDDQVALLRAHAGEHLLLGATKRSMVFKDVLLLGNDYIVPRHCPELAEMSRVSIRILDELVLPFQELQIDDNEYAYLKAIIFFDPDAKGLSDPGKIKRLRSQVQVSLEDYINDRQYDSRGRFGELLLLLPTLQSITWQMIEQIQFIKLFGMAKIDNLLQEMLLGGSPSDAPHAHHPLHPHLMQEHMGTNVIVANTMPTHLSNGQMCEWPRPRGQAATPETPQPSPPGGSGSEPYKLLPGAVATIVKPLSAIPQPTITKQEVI
AF4-AF9 inh: MLL-AF4/AF9 protein interaction inhibition. P42568. AlphaScreen, biotin-AF4 peptide binding to FLAG-AF9. inhibition, % at 10 µM. 350,000 tested, 0.47% active. AID 651704;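 active means every replicate reaching a set inhibition limit, whatever the replicate mean, cut at about 25% in these data; inconclusive means mean inhibition reaches that limit but some replicates miss it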;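 further: 0% = plate neutral control median and 100% = total signal loss; the record names both 10 and 1 µM as test concentration; the first replicate is given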
Ecoli rRNA inh OD600: further read-out of Ecoli rRNA inh, marked with its call; OD600 change, %; measured here: OD600 growth;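 optical density of the mix in the first replicate; 0 = DMSO median and -100 = no signal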
Ecoli rRNA inh RFP: recorded beside Ecoli rRNA inh, whose call it bears; RFP signal change, %; measured here: RFP humanized mutant strains;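 first replicate; 0 = DMSO median and -100 = no signal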
Numbers without * were called inactive; i = inactive; ? = inconclusive; . = not tested or not shown; & = joins results of further samples. Some of the compounds tested, so the mix of outcomes need not match the whole.

SMILES	Ecoli growth	Vif A3G	Ecoli rRNA inh	Ecoli rRNA inh OD600	Ecoli rRNA inh RFP	FGF22 binding	ALR H2O2 inh	HNF4A DNA FP	AF4-AF9 inh
O=C1CCC/C=C\C[C@@H](CC(=O)N(CCO)Cc2ccccc2)C(=O)N[C@H](Cc2c[nH]c3ccccc23)CO1	0.73	6%	-7	-11	1.3	i	.	-3.7	1.6
CCC(=O)N1CCCc2ccccc21	0.65	.	5	7	0.7	i	.	-2.4	-0.5
O=C(Nc1ccc(F)cc1)N[C@@H]1CC[C@H](CCn2cc(-c3ccccc3F)nn2)O[C@@H]1CO	.	.	-14	-14	5.6	i	.	.	-0.7
C[C@H](CO)N1C[C@H](C)[C@@H](CN(C)S(C)(=O)=O)Oc2c(NC(=O)c3ccc(-c4nccs4)cc3)cccc2C1=O	.	.	0	1	-2.1	i	.	.	-1.0
COc1ccccc1C(=O)NC(=S)Nc1ccc(N2CCCC2)cc1	0.76	.	-3	7	-0.5	i	-6	2.7	5.0
CO[C@H]1CN(C)C(=O)c2cc(NC(=O)C3CC3)ccc2OC[C@@H](C)N(C(=O)c2ccccc2)C[C@@H]1C	.	.	1	-3	-0.5	i	.	.	-1.1
CNC[C@H]1Oc2c(NS(=O)(=O)c3ccc(F)cc3)cccc2C(=O)N([C@H](C)CO)C[C@@H]1C	.	.	4&5	3&8	-1.2&-2.7	i	0	-5.1	.
O=C(O)c1cccc(-n2cccc2/C=C2/NC(=O)N(c3ccc(Cl)cc3)C2=O)c1	0.73	-7%	9	11	5.1	.	.	-74	-23
CCCCc1cc2c(c(NC(C)=O)n1)c(=O)oc1ccccc12	0.7	2%	.	.	.	.	-5	.	.
O=[N+]([O-])c1ccc(Sc2ncc3ccccn23)nc1	0.65	-3%	2	-2	1.2	i	-11	-2.6	7.9
O=C(COC(=O)c1cc([N+](=O)[O-])ccc1NCCO)Nc1cccnc1Cl	0.67	-1%	5	4	7.9	i	-22	-2.8	?
COc1ccc(OC)c(N(CC(=O)NCCSc2ccccc2)S(C)(=O)=O)c1	0.68	1%	.	.	.	.	-6	4.2	.
CCCNC(=O)N(C)C[C@H]1Oc2cc(C#CCC(C)C)ccc2S(=O)(=O)N([C@@H](C)CO)C[C@@H]1C	.	.	-5	-26	2.8	i	.	.	1.0
CC(C)c1ccccc1NC(=O)COC(=O)Cc1cccc(C(F)(F)F)c1	0.73	-5%	5	9	3.2	i	7	0.4	-2.4
CCOc1ccc(C(C)NC(=O)c2ccc3c(c2)NC(=O)C(C)S3)cc1OCC (centres undefined)	0.69	.	7	15	-2.3	i	.	0.4	0.6
CCOC(=O)C1=C(C)N=c2s/c(=C\c3ccc(O)c([N+](=O)[O-])c3)c(=O)n2C1c1ccccc1OC (centres undefined)	.	.	11	7	0.1	i	.	4.1	-22
C[C@@H]1CCCCO[C@@H](CN(C)S(=O)(=O)c2cccs2)[C@H](C)CN([C@@H](C)CO)C(=O)c2cc(NS(=O)(=O)c3ccc(Cl)cc3)ccc2O1	.	.	-2	3	0.6	i	.	.	-0.9
CN1C(=O)c2ccccc2NC(=O)[C@]12O[C@@H]2c1cccc(O)c1	0.69	.	.	.	.	i	99*	-7.5	-1.2
C=CCN1C(=O)C2(c3ccccc31)C1CCCC=C1C(C#N)=C(N)C2(C#N)C#N (centres undefined)	0.72	6%	.	.	.	.	-3	1.9	.
COC(=O)[C@H](Cc1ccccc1)NC(=O)N1CC(C)OC(C)C1 (some centres undefined)	.	-1%	.	.	.	.	-12	-1.4	.
CCCCN1C(N)=NC[C@@H]1CCCCN	.	.	4	17	-0.3	i	-1	-0.9	5.7
CCCn1c(CN2CCN(C(=O)OCC)CC2)nc2cc(NC(C)=O)ccc21	0.66	-8%	0	7	-1.0	i	2	-2.7	-0.9
Nc1nc(Nc2ccccc2)nc(NC2CCCCC2)c1[N+](=O)[O-]	0.68	.	5	-3	-0.4	i	4	-2.2	13
COC(=O)c1cc(NC(=O)CN(c2ccccc2OC)S(=O)(=O)c2ccccc2)ccc1Cl	0.77	17%	-21*	-8.0*	4.1*	.	-5	-2.7	.
CCc1cccc(NC(=S)N(CCN(C)C)C2CCN(C(C)C)CC2)c1	0.66	0%	6	2	-0.6	i	.	-4.0	2.9
Cc1ccnc(NS(=O)(=O)c2ccc(NC(=O)c3cc(=O)c4ccccc4o3)cc2)n1	0.68	.	5	2	-1.3	i	-2	-1.7	1.7
CSc1ccccc1C(=O)N(C)Cc1ccccc1	0.67	-7%	0	5	5.2	i	0	3.7	-1.3
COc1ccc(CC(=O)n2c(CC#N)nc3ccccc32)cc1OC	0.67	3%	.	.	.	.	-15	-2.4	.
C[C@@H]1CN([C@@H](C)CO)C(=O)c2cc(NS(=O)(=O)c3ccccc3)ccc2O[C@H]1CN(C)C(=O)Nc1ccccc1	.	.	-1	-10	-1.9	i	.	.	-3.1
COc1ccc(NC(=S)Nc2cc(C)[nH]n2)cc1Cl	0.67	.	-5	-3	-1.1	i	1	-3.0	-8.7
COc1ccc2c3c([nH]c2c1)[C@H](CO)NCC31CCN(S(=O)(=O)c2ccccc2)CC1	.	.	-7	-15	-0.4	i	.	.	3.2
CCOC(=O)c1nnn(-c2nonc2OC)c1-c1ccccc1	0.64	3%	.	.	.	.	-17	0.6	.
Cc1ccc(S(=O)(=O)N2C[C@@H]3CCCC[C@@H]3[C@@H](C)[C@H]2c2cn(Cc3ccccc3)c3ccc(F)cc23)cc1	0.7	10%	0	2	-3.1	i	.	0.9	0.4
CC1=CC(C)(C)NC(=S)N1c1ccc(C)cc1	0.69	-5%	.	.	.	.	-6	-1.9	.
COc1ccc2c(=O)cc(C(=O)O)oc2c1	0.65	-8%	18	5	0.0	i	-1	3.0	0.2
O=C(NCc1ccco1)c1cc(S(=O)(=O)NC2CC2)ccc1Br	0.68	-6%	3	7	-4.1	i	-5	-0.1	0.8
CCN(C(=O)c1cc2c(=O)n3ccccc3nc2n1CCCOC)C1CCCCC1	0.62	.	0	6	0.3	i	6	1.6	-7.2
c1ccc(CCc2nn3c(-c4ccncc4)nnc3s2)cc1	0.7	-2%	.	.	.	.	-1	1.0	.
NC(=O)c1ccsc1NC(=O)COC(=O)c1ccc([N+](=O)[O-])o1	0.62	9%	-4	7	-1.6	i	-11	0.1	-3.3
CNC[C@H]1Oc2ccc(NS(=O)(=O)c3c(C)noc3C)cc2C(=O)N([C@@H](C)CO)C[C@H]1C	.	.	6	2	1.3	i	.	.	-5.5
COc1ncnc2c1ncn2CCCNC1CCN(Cc2ccccc2)CC1	.	5%	4	7	1.8	i	.	-8.2	1.9
COC(=O)c1ccc(COc2ccccc2OC)o1	0.65	1%	9	6	-0.7	i	-11	0.1	-0.1
CN1CCN(C(=O)C[C@@H]2CC[C@@H]3[C@H](COc4ccc(NC(=O)C5CC5)cc4C(=O)N3C)O2)CC1	.	.	1	-5	-1.5	i	.	.	1.2
CCOc1ccccc1/C=N/OCC(=O)NCc1ccc(F)cc1	.	-5%	-25	-30	-2.3	i	-9	3.3	-0.2
C[C@H](CO)N1C[C@H](C)[C@@H](CN(C)C(=O)NC2CCCCC2)OCCCC[C@H](C)Oc2ccc(NS(=O)(=O)c3cccs3)cc2C1=O	.	.	-1	1	2.8	i	.	.	-0.6
CC(Oc1ccccc1)C(=O)Nc1cccc(-c2nc3ccccc3[nH]2)c1 (centres undefined)	0.74	-1%	.	.	.	.	-6	3.1	.
CCC(CO)Oc1cc(NCc2cccc(O)c2)c2ncn(C(C)C)c2c1 (centres undefined)	0.69	.	-1	3	13	i	38	-0.5	6.5
C=CCOc1ccc(/C=C2/C(=O)ON=C2C)cc1OC	0.7	-1%	12	10	2.9	i	.	1.1	-0.7
COc1ccccc1N(CC(=O)N1CCc2ccccc2C1)S(C)(=O)=O	0.68	5%	6	-7	1.3	.	0	2.0	-3.0
O=S(=O)(N[C@@H]1CC[C@@H](CCn2cc(-c3ccc(F)cc3)nn2)O[C@H]1CO)c1ccccc1F	.	.	4	4	-1.7	i	.	.	-1.2
CCOC(=O)[C@H]1[C@H]2COc3ccc(Cl)cc3[C@@H]2N2C(=O)CN(Cc3ccco3)C(=O)[C@@]12C	.	.	-8	-5	8.3	i	-3	-6.2	3.6
C=CCn1c(N2CCN(c3ccc(OC)cc3)CC2)nc2c1c(=O)[nH]c(=O)n2C	0.7	-5%	4	3	1.8	i	.	-1.8	-0.6

In the list so far, 13 have a halogen:
SMILES	Ecoli growth	Vif A3G	Ecoli rRNA inh	Ecoli rRNA inh OD600	Ecoli rRNA inh RFP	FGF22 binding	ALR H2O2 inh	HNF4A DNA FP	AF4-AF9 inh
O=C(Nc1ccc(F)cc1)N[C@@H]1CC[C@H](CCn2cc(-c3ccccc3F)nn2)O[C@@H]1CO	.	.	-14	-14	5.6	i	.	.	-0.7
CNC[C@H]1Oc2c(NS(=O)(=O)c3ccc(F)cc3)cccc2C(=O)N([C@H](C)CO)C[C@@H]1C	.	.	4&5	3&8	-1.2&-2.7	i	0	-5.1	.
O=C(O)c1cccc(-n2cccc2/C=C2/NC(=O)N(c3ccc(Cl)cc3)C2=O)c1	0.73	-7%	9	11	5.1	.	.	-74	-23
O=C(COC(=O)c1cc([N+](=O)[O-])ccc1NCCO)Nc1cccnc1Cl	0.67	-1%	5	4	7.9	i	-22	-2.8	?
CC(C)c1ccccc1NC(=O)COC(=O)Cc1cccc(C(F)(F)F)c1	0.73	-5%	5	9	3.2	i	7	0.4	-2.4
C[C@@H]1CCCCO[C@@H](CN(C)S(=O)(=O)c2cccs2)[C@H](C)CN([C@@H](C)CO)C(=O)c2cc(NS(=O)(=O)c3ccc(Cl)cc3)ccc2O1	.	.	-2	3	0.6	i	.	.	-0.9
COC(=O)c1cc(NC(=O)CN(c2ccccc2OC)S(=O)(=O)c2ccccc2)ccc1Cl	0.77	17%	-21*	-8.0*	4.1*	.	-5	-2.7	.
COc1ccc(NC(=S)Nc2cc(C)[nH]n2)cc1Cl	0.67	.	-5	-3	-1.1	i	1	-3.0	-8.7
Cc1ccc(S(=O)(=O)N2C[C@@H]3CCCC[C@@H]3[C@@H](C)[C@H]2c2cn(Cc3ccccc3)c3ccc(F)cc23)cc1	0.7	10%	0	2	-3.1	i	.	0.9	0.4
O=C(NCc1ccco1)c1cc(S(=O)(=O)NC2CC2)ccc1Br	0.68	-6%	3	7	-4.1	i	-5	-0.1	0.8
CCOc1ccccc1/C=N/OCC(=O)NCc1ccc(F)cc1	.	-5%	-25	-30	-2.3	i	-9	3.3	-0.2
O=S(=O)(N[C@@H]1CC[C@@H](CCn2cc(-c3ccc(F)cc3)nn2)O[C@H]1CO)c1ccccc1F	.	.	4	4	-1.7	i	.	.	-1.2
CCOC(=O)[C@H]1[C@H]2COc3ccc(Cl)cc3[C@@H]2N2C(=O)CN(Cc3ccco3)C(=O)[C@@]12C	.	.	-8	-5	8.3	i	-3	-6.2	3.6

Screening data from PubChem BioAssay.
